Source: PubChem BioAssay
PINK1 expr mod: A Quantitative High throughput Screen to Identify Chemical Modulators of PINK1 Expression | PINK1 immunofluorescence, high-content cytometry, 24 h | Potency, µM (highest dose often 76.6 µM), for inactives: top-dose activation (PINK1 increase), usual class: activators | 410,000 compounds, 0.2% hits | AID 624263, 2012; active = well fitted activation curve with a large enough effect; inconclusive = small, poorly fitted or top-dose-only effect; inactive = flat fitted curve, though single readings scatter; cell line not stated here;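 further: potency means the concentration at half of the fitted maximal effect; % of control where 0% means no effect; nearly all actives have a fitted effect of over 65% in size; a mitochondrial uncoupler was the plate control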
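A stable cell line was treated with compounds at 5 concentrations for 24 hours, with CCCP as control. PINK1 levels and mitochondrial localization were measured by immunofluorescence with mitochondrial, cell and nuclear markers after fixation, read by laser-scanning cytometry.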
D2 potentiator: Beta-Arrestin HTS for Positive Allosteric Modulators of the Human D2 Dopamine Receptor: Potentiators. D(2) dopamine receptor (Homo sapiens), P14416. DiscoveRx D2 beta-arrestin cells, luminescence, 90 min; 100% = 57 uM dopamine signal. potentiation, % (concentration not given with the values). 360,000 compounds, 0.23% hits. AID 624464, 2012; active = potentiation of 50% or more; inconclusive = 30% to 50%; inactive = 30% or less;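 further: tested on top of an EC20 dose of dopamine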
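D2 cells co-treated with compound plus 50 nM dopamine (EC20) for 90 min at 37 deg C to detect potentiation. Beta-arrestin recruitment was read as enzyme-fragment luminescence after 1 h at ambient temperature. Full response was set by 57 uM dopamine.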
TRPV1 PAM: HTS Assay for Compounds that Act as Potentiators of the Vanilloid Receptor 1. Transient receptor potential cation channel subfamily V member 1 (Homo sapiens), Q8NER1. AID 540277, 2011. potentiation, % at 8.33 µM. TRPV1-expressing cells, Fluo-8 calcium influx, capsaicin EC20 potentiation; host cell line not named in the record; control for the full effect not named in the record. 320,000 compounds, 0.02% hits; active means potentiation above 80%; inconclusive means 30% to 80%; inactive means below 30%; further: 0% is about no effect
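Fluo-8 calcium influx in TRPV1-expressing cells, kinetic read (ex 480/em 520 nm). Compound added and read 3 min for agonist activity, followed by capsaicin at EC20 final and 2 min further read for enhancement.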
Six1-Eya2 blk: qHTS Assay for Inhibitors of the Six1/Eya2 Interaction. AlphaScreen GST-Six1/His-Eya2 binding, biochemical; active compounds read low; control for the full effect not named in the record. activity change, % (test concentration not listed). 360,000 compounds, 0.56% hits. AID 651725, 2012; in the data active = activity change below about -65%; inconclusive = about -30% to -65%; inactive = above about -30%; further: on the % scale 0 is the no-effect control and ±100 the full control effect
Target sequence (O00167 whole entry, looked up): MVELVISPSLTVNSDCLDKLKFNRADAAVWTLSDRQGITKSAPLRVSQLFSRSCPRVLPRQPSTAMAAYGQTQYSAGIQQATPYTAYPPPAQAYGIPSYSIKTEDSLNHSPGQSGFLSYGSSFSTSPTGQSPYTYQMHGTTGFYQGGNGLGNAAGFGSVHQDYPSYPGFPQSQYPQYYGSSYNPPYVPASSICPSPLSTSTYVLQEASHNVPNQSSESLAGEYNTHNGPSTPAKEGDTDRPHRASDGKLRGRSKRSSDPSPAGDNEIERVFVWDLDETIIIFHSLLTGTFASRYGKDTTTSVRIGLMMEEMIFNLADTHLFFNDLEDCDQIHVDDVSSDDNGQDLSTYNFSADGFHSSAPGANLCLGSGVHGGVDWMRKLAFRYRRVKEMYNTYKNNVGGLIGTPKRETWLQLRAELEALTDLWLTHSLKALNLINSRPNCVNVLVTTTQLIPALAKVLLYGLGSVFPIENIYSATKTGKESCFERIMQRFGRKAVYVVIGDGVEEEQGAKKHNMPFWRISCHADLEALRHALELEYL
Target sequence (Q15475 whole entry, looked up): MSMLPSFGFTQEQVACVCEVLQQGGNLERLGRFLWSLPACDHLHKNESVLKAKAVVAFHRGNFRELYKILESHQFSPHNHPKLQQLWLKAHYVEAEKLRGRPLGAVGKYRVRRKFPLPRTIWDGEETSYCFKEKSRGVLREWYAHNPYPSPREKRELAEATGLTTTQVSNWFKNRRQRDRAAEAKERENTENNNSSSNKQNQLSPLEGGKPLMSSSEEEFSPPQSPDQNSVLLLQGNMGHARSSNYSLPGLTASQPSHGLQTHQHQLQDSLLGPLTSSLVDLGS
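AlphaScreen with GST-Six1 and His-Eya2 (5X mix: 250 nM and 500 nM), glutathione donor and nickel acceptor beads; buffer 50 mM Tris pH 8.0, 300 mM NaCl, 1 mM TCEP; 1 h at 37 C in the dark.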
Sfp PPTase inh: qHTS Assay for Inhibitors of Bacillus subtilis Sfp phosphopantetheinyl transferase (PPTase). Potency, µM, inactives show max response, negative = inhibition, most hits filed as inhibitors. 310,000 compounds, 3.5% hits. 4'-phosphopantetheinyl transferase ffp (Bacillus subtilis), Q9F4F7. AID 1490, 2009. Biochemical Sfp PPTase activity, qHTS; active means well fitted inhibition curve with a large enough effect; inconclusive means small, poorly fitted or top-dose-only effect, or another doubt; inactive means no such curve, though single readings can be large or run the other way;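 further: the enzyme is Sfp with the accession as filed and its product quenches rhodamine fluorescence; potency means the concentration at half of the fitted maximal effect; 0% = enzyme reaction without inhibitor and -100% = no enzyme wells; top concentration of the series not given in the record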
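Reaction rates are the 30-min fluorescence difference (ex 525, em 598 nm) in wells containing 15 nM Sfp, 5 uM rhodamine-CoA and 12.5 uM BHQ-2-YbbR at pH 7.6 with 10 mM MgCl2.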
D2 ag: Beta-Arrestin HTS for Positive Allosteric Modulators of the Human D2 Dopamine Receptor: Agonists; DiscoveRx PathHunter D2 beta-arrestin, luminescence, 90 min; 100% = 57 uM dopamine signal; activation, % (concentration not given with the values); 360,000 compounds, 0.084% hits; in the data active = activation above about 40%; inconclusive = about 15% to 40%; inactive = below about 15%; further: the text of the record calls up to 30% inactive
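DiscoveRx PathHunter D2 beta-arrestin cells (2,100/well) attached overnight, then compound-stimulated 90 min at 37 C in HBSS/10 mM HEPES/0.1% Tween-20 buffer; beta-galactosidase complementation read by luminescence after 1 h at ambient temperature. Dopamine 57 uM final (EC100) as control.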
CtBP-E1A inh: qHTS Assay for Inhibitors of the CtBP/E1A Interaction; activity change, % (concentration not given with the values); AlphaScreen GST-E1A/His-CtBP binding, 1536-well; active compounds read low; control for the full effect not named in the record; 340,000 compounds, 0.49% hits; CtBP / adenovirus E1A interaction (AlphaScreen); AID 651724, 2012; in the data active means activity change below about -65%; inconclusive means about -30% to -65%; inactive means above about -30%; further: on the % scale 0 is the no-effect control and ±100 the full control effect
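In 5 uL wells, 23 nL compound meets equimolar GST-E1A and His-CtBP (5X stock 125 nM each) for 2 h, 37 °C. Beads (5X, 50 ug/mL) then 1 h, 37 °C, dark.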
Numbers without * were called inactive; & = joins results of further samples; [ ] = dose if it differs, or a comment. No enrichment for hits; 3.7% or so of the library scored in one or more.

Sample of the layout:
For NC(=O)c1cc(N2C(=O)C=CC2=O)ccc1Cl the results were PINK1 expr mod 9.5%[38.3 µM], D2 potentiator -17, TRPV1 PAM 2, Six1-Eya2 blk -9, Sfp PPTase inh 8.9µM*, D2 ag -0.5 and CtBP-E1A inh 4.
Screening C=CCNC(=S)NNC(=O)c1cc(-c2cccnc2)nc2ccccc12 returned PINK1 expr mod -0.1%, D2 potentiator -5, TRPV1 PAM 7, Six1-Eya2 blk -4, Sfp PPTase inh 27%, D2 ag -8.5 and CtBP-E1A inh -6.

The listing, from the first entry:
For NC(=O)c1cc(N2C(=O)C=CC2=O)ccc1Cl the results were PINK1 expr mod 9.5%[38.3 µM], D2 potentiator -17, TRPV1 PAM 2, Six1-Eya2 blk -9, Sfp PPTase inh 8.9µM*, D2 ag -0.5 and CtBP-E1A inh 4.
Screening C=CCNC(=S)NNC(=O)c1cc(-c2cccnc2)nc2ccccc12 returned PINK1 expr mod -0.1%, D2 potentiator -5, TRPV1 PAM 7, Six1-Eya2 blk -4, Sfp PPTase inh 27%, D2 ag -8.5 and CtBP-E1A inh -6.
`COc1ccc(CNC(=S)NCc2ccc(OC)cc2)cc1` gave PINK1 expr mod -0.4%, D2 potentiator -1, TRPV1 PAM -4, Six1-Eya2 blk -7, Sfp PPTase inh 19%, D2 ag 0.6 and CtBP-E1A inh -11.
For CSc1sc(-c2ccnc(SCC(=O)C(C)(C)C)n2)c2c1C(=O)CC(C)(C)C2 the results were PINK1 expr mod inconclusive, D2 potentiator -4, TRPV1 PAM 25, Six1-Eya2 blk 2, Sfp PPTase inh -15%, D2 ag -5.1 and CtBP-E1A inh 1.
CCOC(=O)C1=C(O)/C(=C\c2ccc(CNS(=O)(=O)c3ccc(Br)cc3)o2)N=C1C was read as PINK1 expr mod 4.1%, D2 potentiator 3, TRPV1 PAM 4, Six1-Eya2 blk -29, Sfp PPTase inh inconclusive, D2 ag 5.4 and CtBP-E1A inh -10.
Screening CN1CCCC(C)(C(=O)Nc2ccc3scnc3c2)C1 (centres undefined) returned PINK1 expr mod 0.8%, D2 potentiator -6, Six1-Eya2 blk 2, D2 ag -4.8 and CtBP-E1A inh 1.
For CCOC(=O)C1=C(Cn2cnc3ccccc32)NC(=O)NC1c1ccc(Cl)cc1 (centres undefined) the results were PINK1 expr mod 6.0%[38.3 µM], D2 potentiator 17, TRPV1 PAM -2, Six1-Eya2 blk 0, Sfp PPTase inh 6%, D2 ag inconclusive and CtBP-E1A inh 5.
CCc1cc(C(=O)N=Nc2c(O)[nH]c3ccc([N+](=O)[O-])cc23)c2ccccc2n1 was read as PINK1 expr mod 4.5%, D2 potentiator -3, TRPV1 PAM -1, Six1-Eya2 blk inconclusive, Sfp PPTase inh 3%, D2 ag -4.4 and CtBP-E1A inh inconclusive.
Screening Nc1nc(SCCO)[nH]c(=O)c1NC(=O)c1ccco1 returned PINK1 expr mod -1.0%, D2 potentiator -1, TRPV1 PAM -16, Six1-Eya2 blk 2, D2 ag -5.4 and CtBP-E1A inh 9.
For Cc1[nH]c2ccccc2c1/C=N/Nc1nc(N2CCCCC2)nc(N2CCCCC2)n1 the results were PINK1 expr mod 9.3%, D2 potentiator 8, TRPV1 PAM 16, Six1-Eya2 blk -5, Sfp PPTase inh 35%[activator], D2 ag -2.3 and CtBP-E1A inh -21.
For CCCN(CC(=O)Nc1c(C)cccc1CC)C(=O)SCC the results were PINK1 expr mod -0.3%, D2 potentiator -14, TRPV1 PAM -13, Six1-Eya2 blk 16, Sfp PPTase inh 19%, D2 ag -2.6 and CtBP-E1A inh 2.
For CCOc1ccc(NC(=O)C(c2ccccn2)N(C(=O)CCl)c2ccc(F)cc2)cc1 (centres undefined) the results were PINK1 expr mod 1.0%, D2 potentiator 10, TRPV1 PAM -2, Six1-Eya2 blk 0, Sfp PPTase inh inconclusive, D2 ag 0.8 and CtBP-E1A inh -17.
`O=C(CCCC(=O)OCC(F)(F)C(F)F)Nc1nccs1` gave PINK1 expr mod 0.1%[38.3 µM], D2 potentiator 1, TRPV1 PAM -4, Six1-Eya2 blk 3, Sfp PPTase inh 14%, D2 ag 1.9 and CtBP-E1A inh 6.
`Cc1cc(Cn2ccnc2)c(C)cc1Cn1ccnc1` gave PINK1 expr mod 1.9%[38.3 µM], D2 potentiator -1, TRPV1 PAM -6, Six1-Eya2 blk 1, Sfp PPTase inh 22%, D2 ag 1.8 and CtBP-E1A inh 0.
`COc1ccc(O)c(/C=N/c2nc3ccccc3n2C)c1` gave PINK1 expr mod 0.3%, D2 potentiator -5, TRPV1 PAM 14, Six1-Eya2 blk 17, Sfp PPTase inh -2%, D2 ag -3.4 and CtBP-E1A inh 6.
For O=C(C1CCCN(S(=O)(=O)c2cnc[nH]2)C1)N(CCc1ccccc1)Cc1ccccc1 (centres undefined) the results were PINK1 expr mod 0.7%, D2 potentiator -3, TRPV1 PAM -7, Six1-Eya2 blk -9, Sfp PPTase inh -2%, D2 ag -2.5 and CtBP-E1A inh 3.
`COc1ccc(-c2c(C#N)c(N)nc3c2CCCC3)cc1OC` gave PINK1 expr mod 5.8%[38.3 µM], D2 potentiator -18, Six1-Eya2 blk 2, D2 ag -1.6 and CtBP-E1A inh 0.
For CC(=O)Nc1cccc(Oc2nc(-c3ccccn3)nc3ccccc23)c1 the results were PINK1 expr mod 0.5%, D2 potentiator -5, TRPV1 PAM -13, Six1-Eya2 blk -2, Sfp PPTase inh 2%, D2 ag -1.8 and CtBP-E1A inh -5.
Screening O=c1oc2ccccc2cc1-c1csc(Cc2nc(-c3ccc(Cl)cc3)cs2)n1 returned PINK1 expr mod 9.9%, D2 potentiator -5, TRPV1 PAM 4, Six1-Eya2 blk 13, Sfp PPTase inh 4%, D2 ag -1.6 and CtBP-E1A inh -13.
`N=C1C(c2nc3ccccc3s2)=C(O)CN1NC(=O)c1c[nH]c2ccccc12` gave PINK1 expr mod 2.7%, D2 potentiator -3, TRPV1 PAM 2, Six1-Eya2 blk -3, Sfp PPTase inh -26%, D2 ag 3.4 and CtBP-E1A inh 6.
O=Cc1ccc(-n2cc(C=O)c3ccccc32)cc1 was read as PINK1 expr mod 2.0%, D2 potentiator -1, TRPV1 PAM 9, Six1-Eya2 blk 6, Sfp PPTase inh -27%, D2 ag -3.0 and CtBP-E1A inh -2.
`CCn1c(CNC(=O)COc2ccc(C(C)C)cc2)nnc1SCC(=O)Nc1cc(F)ccc1C` gave PINK1 expr mod -7.2%[38.3 µM], D2 potentiator -4, TRPV1 PAM 1, Six1-Eya2 blk 1, Sfp PPTase inh 13%, D2 ag 0.3 and CtBP-E1A inh 29.
`CNC(=O)[C@@H]1C[C@H]1[C@@H](NC(=O)CNC(=O)OCc1ccccc1)c1ccccc1` gave PINK1 expr mod 0.2%, D2 potentiator -3, Six1-Eya2 blk 1, Sfp PPTase inh 3%, D2 ag 0.7 and CtBP-E1A inh 5.
Screening N#Cc1c(-c2ccco2)cc(-c2ccccc2)[nH]c1=O returned PINK1 expr mod 1.2%, D2 potentiator -10, TRPV1 PAM -3, Six1-Eya2 blk 0, Sfp PPTase inh inconclusive, D2 ag -0.6 and CtBP-E1A inh -2.
Screening Cc1cc(SCc2cc(=O)[nH]c3ccccc23)nc2ccccc12 returned PINK1 expr mod 3.6%, D2 potentiator -7, TRPV1 PAM -3, Six1-Eya2 blk -1, Sfp PPTase inh 11%, D2 ag 1.7 and CtBP-E1A inh -7.
`CC(C)CC(NC(=O)OC(C)(C)C)C(=O)NC(C(=O)N1CCCC1C(N)=O)C(C)C` (centres undefined) gave PINK1 expr mod -0.8%, D2 potentiator 15, TRPV1 PAM 3, Six1-Eya2 blk 6, Sfp PPTase inh -2%, D2 ag -3.9 and CtBP-E1A inh 5.
For CCOC(=O)c1ccc(NC(=O)COc2cc(=O)n(CC)c3ccccc23)cc1 the results were PINK1 expr mod 17%, D2 potentiator -2, TRPV1 PAM -13, Six1-Eya2 blk 1, Sfp PPTase inh -9%, D2 ag -2.1 and CtBP-E1A inh 4.
Screening Cc1ccc(S(=O)(=O)C2(C(=O)NC3CCCCC3C)CC2)cc1 (centres undefined) returned PINK1 expr mod 0.4%, D2 potentiator -6, TRPV1 PAM -5, Six1-Eya2 blk 7, Sfp PPTase inh 17%, D2 ag -1.2 and CtBP-E1A inh 8.
O=C1C2CC=C(Cl)CC2C(=O)N1CN(Cc1ccco1)CN1C(=O)C2CC=C(Cl)CC2C1=O (centres undefined) was read as PINK1 expr mod 1.2%, D2 potentiator 2, TRPV1 PAM -4, Six1-Eya2 blk 24, Sfp PPTase inh -6%, D2 ag 0.2 and CtBP-E1A inh 7.
Screening CCc1n[nH]c(=S)n1/N=C/c1c[nH]c2ccc(Br)cc12 returned PINK1 expr mod -2.3%, D2 potentiator -28, TRPV1 PAM inconclusive, Six1-Eya2 blk -16, Sfp PPTase inh 11%, D2 ag 6.1 and CtBP-E1A inh 2.
Screening COc1cc(NS(=O)(=O)c2ccc(Cl)cc2)c(C(=O)O)cc1OC returned PINK1 expr mod 1.6%, D2 potentiator -10, TRPV1 PAM 4, Six1-Eya2 blk -2, Sfp PPTase inh 11%, D2 ag 0.2 and CtBP-E1A inh -6.
For COc1ccc(CCC(=O)Nc2ccc(OC)c(S(=O)(=O)N3CCCCC3)c2)cc1OC the results were PINK1 expr mod 3.8%, D2 potentiator -11, TRPV1 PAM -2, Six1-Eya2 blk -6, D2 ag -6.1 and CtBP-E1A inh 4.
For COCC1CCCCN1C(=O)c1ccc2oc(CCCc3ccccc3)nc2c1 (centres undefined) the results were PINK1 expr mod 2.1%, D2 potentiator -23, TRPV1 PAM 3, Six1-Eya2 blk -2, Sfp PPTase inh -12%, D2 ag -4.3 and CtBP-E1A inh 2.
O=c1c(O)c(-c2ccc(O)cc2O)oc2cc(O)cc(O)c12 was read as PINK1 expr mod 0.2%, TRPV1 PAM -2 and Sfp PPTase inh 4%&2%&15%.
